# Assay outcomes: PubChem, National Center for Advancing Translational Sciences (NCATS)
# gsp antagonist – gsp mutant antagonism | Potency, µM (series often up to 76.9 µM), inactives show at the highest dose activity change, negative = inhibition, most hits filed as inhibitors | gsp-mutant cells, cAMP HTRF, 30 min; control for the full effect not named in the record | AID 624288 | hit rate 0.4% among 340,000; active = falling curve of any shape with a large fitted effect; inconclusive = falling curve, mostly with a smaller effect; inactive = flat or rising curve; cell line not stated here;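 also: intracellular cAMP measured with PDE inhibitor Ro 20-1724 present during compound exposure; potency is read from the fitted curve at half-maximal effect; % is scaled to controls: 0 for no effect and ±100 for the full control effect; nearly all actives have a fitted effect of over 65% in size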
#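 Measurement of cellular cAMP by homogeneous time-resolved fluorescence following a 30 min compound exposure at 37C. The PDE inhibitor […] was present throughout; the assay buffer was DPBS with 0.05% BSA and 0.005% Tween 20.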
# D2 agonist – human D2 receptor agonism in beta-arrestin assay; hit rate 0.084% among 360,000; DiscoveRx PathHunter D2 beta-arrestin, luminescence, 90 min; 100% = 57 uM dopamine signal; activation, % (test concentration not listed); P14416; in the data active = activation above about 40%; inconclusive = about 15% to 40%; inactive = below about 15%; also: compound concentration not given in the record; the text of the record calls up to 30% inactive
# Target sequence (P14416 whole entry, looked up): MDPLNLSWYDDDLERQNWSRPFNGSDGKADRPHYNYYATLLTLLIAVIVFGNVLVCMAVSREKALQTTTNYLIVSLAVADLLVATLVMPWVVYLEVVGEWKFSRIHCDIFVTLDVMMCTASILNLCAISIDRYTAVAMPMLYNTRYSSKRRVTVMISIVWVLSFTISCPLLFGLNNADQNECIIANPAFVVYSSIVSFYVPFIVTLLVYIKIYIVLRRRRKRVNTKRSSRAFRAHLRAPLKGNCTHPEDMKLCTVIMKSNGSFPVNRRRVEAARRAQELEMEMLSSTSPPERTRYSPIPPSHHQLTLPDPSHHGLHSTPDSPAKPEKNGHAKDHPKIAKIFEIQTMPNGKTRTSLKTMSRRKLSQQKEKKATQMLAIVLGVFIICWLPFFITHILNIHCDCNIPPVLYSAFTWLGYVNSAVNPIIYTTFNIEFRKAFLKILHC
#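 Agonist mode: compounds alone added to overnight-plated D2 PathHunter cells for 90 min at 37 C, with 57 uM final dopamine (EC100) defining full response. Beta-arrestin recruitment detected by chemiluminescent reagent, read after 1 h at ambient temperature.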
# gsp agonist – agonists of gsp mutant (McCune-Albright syndrome); gsp mutant cells, cAMP HTRF, 30 min; control for the full effect not named in the record; Potency, µM (highest dose often 76.9 µM), without a hit: at the highest dose activation (cAMP increase), most hits filed as activators; hit rate 0.13% among 340,000; AID 624287; active = well fitted activation curve with a large enough effect; inconclusive = small, poorly fitted or top-dose-only effect, or another doubt; inactive = no such curve, though single readings can be large or run the other way; cell line not stated here;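 also: phosphodiesterase inhibitor Ro 20-1724 added with compounds to block cAMP breakdown; potency is read from the fitted curve at half-maximal effect; nearly all actives have a fitted effect of over 60% in size; about a fifth of the inactives were tested at one dose only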
#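 Cells stably selected in G418 were plated at 2000/well, grown 16-24 hr, then given compounds in DMSO with the PDE inhibitor […] (300 uM solution added) for 30 min at 37C; cAMP was read by HTRF.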
# Six1-Eya2 inh – inhibitors of human Six1/Eya2 interaction; Q15475+O00167; AlphaScreen GST-Six1/His-Eya2 binding, biochemical; hits give low values; control for the full effect not named in the record; activity change, % (test concentration not listed); hit rate 0.56% among 360,000; in the data active = activity change below about -65%; inconclusive = about -30% to -65%; inactive = above about -30%; also: % is scaled to controls: 0 for no effect and ±100 for the full control effect; compound concentration not given in the record
#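 Homogeneous AlphaScreen proximity assay pairing GST-Six1 with His-tagged Eya2 (added as 5X mix: 250 nM and 500 nM) in 50 mM Tris pH 8.0, 300 mM NaCl, 1 mM TCEP. Glutathione donor and nickel acceptor beads; 1 h, 37 °C, dark.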
# CtBP-E1A blk – CtBP/E1A binding inhibition; AlphaScreen GST-E1A/His-CtBP binding, 1536-well; hits give low values; control for the full effect not named in the record; activity change, % (no concentration beside the values); hit rate 0.49% among 340,000; AID 651724; in the data active means activity change below about -65%; inconclusive means about -30% to -65%; inactive means above about -30%; also: % is scaled to controls: 0 for no effect and ±100 for the full control effect; compound concentration not given in the record
#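 Protein mix (5X: 125 nM each GST-E1A, His-CtBP) was incubated with pinned compound 2 h at 37 deg C in dark, in 50 mM Tris pH 8.0 buffer with 300 mM NaCl. Glutathione donor and nickel acceptor beads followed; AlphaScreen signal read after 1 h.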
# D2 PAM – human D2 receptor positive allosteric modulation | P14416 | DiscoveRx D2 beta-arrestin cells, luminescence, 90 min; 100% = 57 uM dopamine signal | potentiation, % (test concentration not listed) | hit rate 0.23% among 360,000; active = potentiation of 50% or more; inconclusive = 30% to 50%; inactive = 30% or less;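 also: compound concentration not given in the record; tested on top of an EC20 dose of dopamine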
#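 PathHunter D2 cells, attached overnight at 37 deg C, received compound in DMSO plus dopamine at EC20 (50 nM final) for 90 min at 37 deg C. Beta-arrestin recruitment was read as luminescence after 1 h with detection reagent at ambient temperature.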
# The depositor's hits bear a star; ? = inconclusive; . = not tested or not shown; [ ] = remark or other dose.
SMILES,gsp antagonist,D2 agonist,gsp agonist,Six1-Eya2 inh,CtBP-E1A blk,D2 PAM
CSc1ccccc1NC(=O)CSc1nnc(Cc2ccccc2)o1,0%,-1.4,-15%,4,4,-9
Clc1ccc(CN(Cc2ccccc2)C(c2cccs2)c2nnnn2C2CCCC2)cc1 (stereo not given),-13%,-3.8,-22%,0,-1,-15
COC(=O)c1ccc(CSCC(=O)Nc2ccccc2)cc1,11%,-3.1,4%[15.4 µM],0,14,-26
COc1cc(CCC(=O)Nc2cc(Cl)ccc2N2CCN(C)CC2)cc(OC)c1OC,10%,-1.7,-16%,0,-5,-19
COC(=O)c1c(-c2ccc(OC)cc2)sc2ccc(OC)cc12,-28%,-2.9,.,28,27,-5
CC(=O)N1N=C(c2ccco2)CC1c1cc2ccc(C)cc2nc1Cl (stereo not given),-4%,-1.5,-13%[15.4 µM],-4,3,-8
COc1ccc(C(CC(=O)O)NC(=O)c2cccs2)cc1 (stereo not given),4%,-0.8,-20%,3,-8,-14
COc1ccc(CC(=O)NCC2CCCN(Cc3cccc(SC)c3)C2)cc1 (stereo not given),3%,-1.6,28%,-2,0,-7
O=C(O)c1cccc(NC(=O)C2C3C=CC(C3)C2C(=O)OCC(F)(F)C(F)F)c1 (stereo not given),7%,-2.3,16%,7,13,-6
CCC(NS(=O)(=O)c1ccc2c(c1)NC(=O)C(C)C(=O)N2)c1cccs1 (stereo not given),12%,1.2,-8%,10,21,-2
Cc1cc(/C=C\c2nc(O)c([N+](=O)[O-])c(=O)[nH]2)c(C)n1-c1ccccc1,10%,-1.4,-11%[15.4 µM],0,4,-1
COc1ccc(NC(=O)COC(=O)CNS(=O)(=O)c2ccccc2)cc1OC,.,-3.4,-1%[15.4 µM],10,-15,-1
CC1CN(C2=NC(=O)/C(=C3/C(=O)N(Cc4ccc(F)cc4)c4ccccc43)S2)CC(C)O1 (stereo not given),17%,-6.6,5%,-6,.,6
CCOC(=O)Cn1cc(C(=O)C(C)(C)C)c2ccccc21,-30%,2.0,13%,25,7,-5
CN(C)CCOc1cccc(Cl)c1,17%,-3.2,0%,4,-11,-32
CC(C)CN1C(=O)c2ccc(NC(=O)c3ccccc3F)cc2C1=O,5%,-1.9,-10%,4,4,-10
Cc1ccc(S(=O)(=O)NCC(=O)OCc2csc(-c3ccccc3)n2)cc1,-43%,-1.8,-69%[inhibitor],-6,-4,-21
O=C(CNC(=O)c1ccc(Cl)c([N+](=O)[O-])c1)OCN1C(=O)c2ccccc2C1=O,-33%,-1.8,-1%,-4,4,14
CC(=O)c1c(C)nc2ccccn12,-21%,1.4,6%,16,-5,-1
O=C(Nc1cnn(Cc2ccc(Cl)c(Cl)c2)c1)c1nc2ncccn2n1,9%,-3.8,-21%,-15,-12,-18
O=C(Nc1nnc(COc2ccc(Cl)cc2)s1)c1ccc([N+](=O)[O-])cc1,4%,-1.4,17%,6,9,-1
Cc1ccc(/C=N/NC(=O)c2nnn(-c3nonc3N)c2C)o1,-7%,-1.0,4%,2,2,6
O=C(Nc1cccc(Cl)c1)N1CCCC1,9%,-3.2,-15%,8,4,-5
COc1ccc(N(C)C(=O)c2ccc3nc(-c4ccccc4)c(-c4ccccc4)nc3c2)cc1,?,-2.1,2%,-12,-10,-5
CC(C)CN(C(=O)COC(=O)CNC(=O)c1sc2ccccc2c1Cl)C1CCS(=O)(=O)C1 (stereo not given),-1%,-8.3,-14%[15.4 µM],-8,-1,-19

# As entered above:
# Reading of `Cc1ccc(S(=O)(=O)NCC(=O)OCc2csc(-c3ccccc3)n2)cc1` in gsp antagonist: -43%
# Reading of `CC(=O)N1N=C(c2ccco2)CC1c1cc2ccc(C)cc2nc1Cl` (stereo not given) in Six1-Eya2 inh: -4
# Reading of `CC(=O)c1c(C)nc2ccccn12` in CtBP-E1A blk: -5
# Reading of `Cc1cc(/C=C\c2nc(O)c([N+](=O)[O-])c(=O)[nH]2)c(C)n1-c1ccccc1` in D2 agonist: -1.4
# Reading of `O=C(O)c1cccc(NC(=O)C2C3C=CC(C3)C2C(=O)OCC(F)(F)C(F)F)c1` (stereo not given) in D2 agonist: -2.3

# The list goes on:
SMILES,gsp antagonist,D2 agonist,gsp agonist,Six1-Eya2 inh,CtBP-E1A blk,D2 PAM
CC(Oc1ccc(Br)cc1)C(=O)NCCCN1CCCC1=O (stereo not given),9%,-0.1,5%[15.4 µM],1,1,6
O=C(O)c1ccccc1C(c1ccccc1)c1ccccc1O (stereo not given),9%,-1.5,-5%,-3,3,-4
CCN(CC)CCOC(=O)c1c(C)oc2ccc(OC)cc12,8%,-2.8,-8%,11,49,-19
Cc1cc(NC(=O)Nc2ccc(F)cc2F)n(C)n1,5%,-3.9,-3%[15.4 µM],1,7,-10
Cc1c(NC(=O)c2ccc(N3CCCC3)c([N+](=O)[O-])c2)cccc1-c1nc2ccccc2s1,7%,-0.9,-7%,-12,12,-16
COc1ccc(NC(=O)[C@@H]2CC=C[C@@H]3CCN(Cc4ccc(Cl)c(Cl)c4)C(=O)[C@@H]32)cc1,-24%,-1.7,.,-9,-26,-7
CCCn1c(=N)n(CC(O)c2ccc(C)cc2)c2ccccc21 (stereo not given),11%,-3.2,4%,-1,4,-15
Cn1c(N)c(C(=O)COC(=O)C23CC4CC(CC(C4)C2)C3)c(=O)n(C)c1=O,2%,0.6,?,0,-4,-1
CCCc1[nH]nc2c1C(c1ccncc1)C(C#N)=C(N)O2 (stereo not given),16%,-0.7,-5%,-2,-3,-6
CN(C)S(=O)(=O)c1ccc2c(c1)nc(CCC(=O)NCC1CCCCC1)n2C,-1%,-4.5,-6%,11,4,-12
O=C(NCCc1c[nH]c2ccccc12)/C(=C/c1cccnc1)NC(=O)c1cccs1,4%,0.7,-6%,-1,2,-15
CC(C)CN(C(=O)COC(=O)c1cccn1C)c1c(N)n(Cc2ccccc2)c(=O)[nH]c1=O,3%,-0.7,-17%,-1,4,9
CC(C)CCNc1ncnc2c1nnn2Cc1ccccc1,3%,-0.7,23%,6,2,-3
COc1ccc(-c2cc(=O)oc3cc(OCC(=O)NCc4ccccn4)ccc23)cc1,-2%,2.5,-33%[inhibitor],7,5,-4
CCCc1cc(=O)oc2cc(OCC(=O)Nc3ccccn3)ccc12,3%,1.7,12%,4,0,-6
O=[N+]([O-])c1cccc(-c2c(-c3ccccc3)ncc3ccc(F)cc23)c1,4%,-0.9,-27%,-11,-9,1
CCCSc1nnc2c(n1)OC(c1cccn1C)N(C(C)=O)c1ccccc1-2 (stereo not given),-1%,-2.5,6%,-2,12,-8
Cc1nn(-c2ccccc2)c(Cl)c1C(=O)Nc1ccccc1,-12%,-1.0,0%,0,4,-14
Cc1ccc(SCCCCN2CCNCC2)cc1,18%,-5.0,37%,0,1,-5
COc1ccc(S(=O)(=O)N2CCC(C(=O)N3CCC(C(N)=O)CC3)CC2)cc1Cl,4%,-1.5,-57%[inhibitor],-9,2,-3
Cc1cc(C=O)c(C)n1-c1ccc(Oc2ccc([N+](=O)[O-])cn2)cc1,10%,-0.1,0%,2,-6,-9
CCC(C)/C=C/C1=CC2=C(Cl)C(=O)C3(C)OC(=O)C(C(=O)C(C)C(C)O)C3C2=CO1 (stereo not given),-14%,-4.9,.,-2,-23,-28
C=CCN(c1ccccc1)S(=O)(=O)c1cccc(C(=O)NNC(=O)c2ccccc2O)c1,-16%,-2.4,?,-12,-1,-5
CSCCC(NC(=O)c1ccco1)C(=O)NCC(c1ccccc1)N(C)C (stereo not given),11%,5.0,8%,0,0,0
COc1cccc(CNc2nc3cc(-c4ccc(C(=O)N5CCN(C)CC5)cc4)sc3c(=O)n2C)c1,.,-5.9,.,-3,-7,-13
# New compounds follow.
SMILES,gsp antagonist,D2 agonist,gsp agonist,Six1-Eya2 inh,CtBP-E1A blk,D2 PAM
CCCN(C(=O)Cn1ncc2c(=O)oc3ccccc3c21)c1cccc(C)c1,-16%,-4.7,-32%[inhibitor],-1,3,8
CC(=O)Oc1ccc2cc(-c3ccccc3)c(=O)oc2c1,18%,1.9,0%[15.4 µM],5,0,-2
CCCCN(CC)Cc1ccc(CNC(=S)Nc2cccc(F)c2)o1,4%,-4.2,4%[15.4 µM],-13,-10,-11
CSc1sc(-c2ccnc(=S)[nH]2)c(-c2ccccc2)c1C#N,-10%,-2.7,21%,-16,-28,-11
Cc1ccc(S[C@@H](CCN2CC[C@H](C)CCC2=O)c2ccccc2)cc1,-13%,2.6,-16%,-5,.,-4
CC(Sc1nnc(-c2ccncc2)n1C)C(=O)Nc1ccc(N2CCOCC2)cc1 (stereo not given),-5%,-2.0,?,-2,-22,0
CCCn1ncc(CN2CCN(Cc3ccc(C)o3)C(CCO)C2)c1C (stereo not given),11%,0.7,13%[15.4 µM],2,3,-7
CC(C(=O)N1CCc2ccccc21)N1CCN(S(=O)(=O)c2cccc(C(F)(F)F)c2)CC1 (stereo not given),-13%,-1.8,1%,-6,2,-7
CCOc1ccc(NC(=O)Cn2cc(C(=O)CC)c3ccccc32)cc1,0%,-1.2,25%,1,.,-14
COCCN1C(=O)N[C@@H](c2cccc(C(F)(F)F)c2)C(C(=O)OC)=C1C,4%,-2.2,16%,2,2,-7
C=C1C(=O)[C@]23C[C@H]1CCC2[C@@]1(C)C(C[C@@H]3O)[C@](C)(C(=O)O)C[C@H](O)[C@@H]1O (stereo not given in full),.,-3.4,.,10,6,-6
COc1ccc(CCNC(=O)c2cn3ccc(C)cc3n2)cc1OC,-1%,-2.5,14%,-3,.,1
O=S(=O)(Nc1ccc(-n2cnnn2)cc1)c1ccc(F)c(F)c1F,0%,-0.8,?,-1,0,-5
Cc1csc(N(C(=O)Cc2ccccc2F)c2ccccc2)n1,-24%,-7.5,-3%[15.4 µM],0,8,-6
COc1ccc(N2CCN(C(=O)c3cn(C4CCCC4)c(=O)c4c3c3ccccc3n4C)CC2)cc1,?,-2.6,13%[15.4 µM],?,?,1
CCOC(=O)c1cc(NC(=O)NCc2ccco2)c(C)nc1C,-2%,-4.0,5%,-5,-3,-1
N#C/C(=C\c1ccc(Cl)s1)C(=O)N1CCN(c2ccccc2)CC1,9%,-5.7,0%,-18,-16,-12
C#CCOCCOCCOCCNc1nc(N2CCN(C(=O)Cn3cc(CCO)nn3)CC2)nc(N2CCN(C(=O)[C@H](C)n3cc(CCCN=C(N)N)nn3)CC2)n1,9%,-3.6,.,8,6,-7
CC1CCCCC1NC(=O)CSc1nnc(-c2ccncc2)n1CCCN(C)C (stereo not given),5%,5.2,19%,13,6,-3
O=C(NC1CC1)c1ccc2c(c1)N(Cc1ccccc1)CCS2,?,2.8,29%,-7,-8,-2

# Single records (already shown). Order of screens: gsp antagonist | D2 agonist | gsp agonist | Six1-Eya2 inh | CtBP-E1A blk | D2 PAM
# Shown for CSc1sc(-c2ccnc(=S)[nH]2)c(-c2ccccc2)c1C#N : -10% | -2.7 | 21% | -16 | -28 | -11
# Shown for O=C(NC1CC1)c1ccc2c(c1)N(Cc1ccccc1)CCS2 : ? | 2.8 | 29% | -7 | -8 | -2

# Rows are unselected; any-hit rate near 1.4%.
